Screens as filed in PubChem BioAssay.
RE007 growth inh = qHTS Assay for Inhibitors of the HIV-1 protein Vpr. S. pombe RE007 Vpr strain, BacTiter-Glo ATP luminescence, 24 h; control for the full effect not named in the record. hit rate 0.21% among 360,000. Potency, µM (series often up to 92.2 µM), for inactives: at the top dose activity change, negative = less growth; active = well fitted falling curve with a large enough effect; inconclusive = small, poorly fitted or top-dose-only effect; inactive = no such curve, though single readings can be large or run the other way;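 also: % is scaled to controls: 0 for no effect and ±100 for the full control effect; nearly all actives have a fitted effect of over 50% in size; the assay follows cell death caused by Vpr and the record does not say whether a fall means rescue or toxicity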
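Fission yeast strain RE007, carrying one chromosomally integrated HIV-1 vpr copy, was seeded at OD 0.01 in PMG+AL medium with 23 nL pinned compound. After 24 h at 30 °C and 99% humidity, viability was read by BacTiter-Glo luminescence.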
SARS PLP yeast = qHTS of Yeast-based Assay for SARS-CoV PLP; S. cerevisiae expressing SARS-CoV PLpro, growth rescue; control for the full effect not named in the record; Potency, µM (top dose mostly 32.9 µM), for the others: at the highest dose activity, positive = growth rescue; hit rate 0.19% among 330,000; active means well fitted rising curve with a large enough effect; inconclusive means small, poorly fitted or top-dose-only effect; inactive means no such curve, though single readings can be large or run the other way; also: 0% is about no effect; nearly all actives have a fitted effect of over 55% in size; growth read by luminescence after 48 h
StopGo reporter = High Throughput Screening for Foot and Mouth Disease Virus Antivirals. human cells with a luciferase reporter of 2A StopGo recoding; control for the full effect not named in the record. Potency, µM (doses to about 57.9 µM), for inactives: at the top dose signal change, negative = less light. hit rate 1.2% among 410,000; active = well fitted falling curve with a large enough effect; inconclusive = small, poorly fitted or top-dose-only effect; inactive = no such curve, though single readings can be large or run the other way; tested in HEK293T cells; also: % is scaled to controls: 0 for no effect and ±100 for the full control effect; nearly all actives have a fitted effect of over 45% in size; luciferase light after 4 h
* marks the source's active call; other numbers are inactive results; ? = inconclusive; [ ] = another dose, or the depositor's remark. Potency is read from the fitted curve at half-maximal effect. The list is partial; the hit share may differ from the screen's.

molecule	RE007 growth inh	SARS PLP yeast	StopGo reporter
COc1cc(C(=O)N2CCN(c3cccc(C)c3C)CC2)ccc1OCC(=O)N1CCOCC1	-1%	-1%	-17%
CC1CCCCC1NC(=O)COc1ccccc1C#N (stereo not given)	-1%	-8%	13%
COc1ccccc1-n1nnnc1SCC(=O)NCC1(N2CCOCC2)CCCCC1	-2%	-1%	-28%
CC(C)(C)[C@H]1COC(=O)[C@@H](NC(=O)OCC2c3ccccc3-c3ccccc32)C/C=C\C[C@@H](CC(=O)N[C@@H](CO)Cc2ccccc2)C(=O)N1	-12%	-1%	-5%
CC1CC(C)CN(CC(=O)Nc2cc(S(=O)(=O)N3CCOCC3)ccc2N2CCCC2)C1 (stereo not given)	-16%	5%	-4%
CCOc1ccc(S(=O)(=O)NCCC(=O)N2CC=C(c3ccccc3)CC2)cc1	-5%	-2%	?
CCOC(=O)C1=CN(Cc2cccc(F)c2)S(=O)(=O)N(C)C1CCc1ccccc1 (stereo not given)	7%	-5%	-24%
C[C@H]1CN([C@@H](C)CO)C(=O)c2cccc(NS(=O)(=O)c3ccc(F)cc3)c2O[C@H]1CN(C)Cc1ccc(Cl)c(Cl)c1	-5%	-4%	-16%
COc1ccc(NS(=O)(=O)c2ccc(C(=O)N3CCN(Cc4ccccc4)CC3)cc2)cc1	1%	1%	?
O=C1C=C(c2ccc(-c3ccccc3)cc2)C[C@@H](c2ccc(Cl)cc2)C1	-9%	-2%	-1%
CCC(C)[C@H]1CNCCN1CCc1cccc(F)c1 (stereo not given in full)	10%	0%	-14%
C[C@@H]1CN([C@@H](C)CO)C(=O)Cc2cc(NC(=O)Nc3cccc4ccccc34)ccc2O[C@@H]1CN(C)Cc1ccc(C(F)(F)F)cc1	-11%	4%	?
Cc1ccc(S(=O)(=O)Nc2ccc3c(c2)C(=O)N([C@H](C)CO)C[C@H](C)[C@@H](CN(C)C(=O)Nc2ccc(C(F)(F)F)cc2)O3)cc1	6%	5%	-13%
CCCCN(C(=O)CCCc1nc2ccccc2c(=O)[nH]1)c1c(N)n(CC(C)C)c(=O)[nH]c1=O	-17%	-3%	6%
NC(=O)CSc1nnc(Cn2cnc3ccccc32)o1	4%	1%	-21%
CN(Cc1cccs1)C(=O)c1cc(S(=O)(=O)N2CCOCC2)ccc1F	3%	-10%	3%
COc1cccc(-c2sc3ccc(OC)cc3c2-c2ccc(OCCN3CCOCC3)cc2)c1	-20%	-27%	-21%
CN(CC(=O)Nc1cccc(F)c1)C(=O)c1ccccc1Sc1ccccc1C#N	3%	-1%	-20%
CCC(OC(=O)c1nsc(Cl)c1Cl)C(=O)NC(C)(C)C (stereo not given)	3%	8%	-18%
NNC(=O)c1ccc2ccccc2n1	9%	1%	?
COc1ccc(S(=O)(=O)Nc2ccc3c(c2)CC(=O)N([C@@H](C)CO)C[C@H](C)[C@@H](CN(C)S(=O)(=O)c2ccc(F)cc2)O3)cc1	0%	-12%	-10%
N#Cc1ccccc1S(=O)(=O)N1CCN(C(=O)CN2CCCC2c2cccs2)CC1 (stereo not given)	-4%	-4%	1%
CCN(CC(=O)NC1CCS(=O)(=O)C1)c1ccc(S(=O)(=O)N(CC)CC)cc1[N+](=O)[O-] (stereo not given)	-8%	3%	-17%
CCc1ccccc1NC(=O)CN1CCN(C(=O)c2cccc(-n3cnnn3)c2)CC1	18%	1%	0%
O=C(NCc1ccc(F)cc1)c1cc(S(=O)(=O)N2CCCCC2)ccc1Cl	2%	5%	-9%
COc1ccc(NC(=O)CSc2nnc(C3CC3)n2C)cc1S(=O)(=O)N1CCOCC1	-6%	6%	-19%
COc1ccccc1NC(=O)COC(=O)CCc1ccc(S(=O)(=O)N2CCOCC2)cc1	-16%	2%	-19%
COc1ccc(S(=O)(=O)N(C)C[C@H]2Oc3c(cccc3N(C)C)C(=O)N([C@H](C)CO)C[C@@H]2C)cc1	-11%	-7%	16%
S=C(NCCc1ccccc1)Nc1nccs1	-3%	1%	41%[activator]
COc1ccc(C)cc1NC(=O)CO/N=C(\N)CC(=O)Nc1ccccc1OC	-5%	-3%	-6%

Entries above that contain a tert-butyl group (two):
molecule	RE007 growth inh	SARS PLP yeast	StopGo reporter
CC(C)(C)[C@H]1COC(=O)[C@@H](NC(=O)OCC2c3ccccc3-c3ccccc32)C/C=C\C[C@@H](CC(=O)N[C@@H](CO)Cc2ccccc2)C(=O)N1	-12%	-1%	-5%
CCC(OC(=O)c1nsc(Cl)c1Cl)C(=O)NC(C)(C)C (stereo not given)	3%	8%	-18%

(next part)
molecule	RE007 growth inh	SARS PLP yeast	StopGo reporter
N=c1c[n+](C2CCCCC2)[n-]o1	-4%	-5%	-12%
COC(=O)c1nnn(CC(=O)NC(=O)Nc2cccc(Cl)c2C)c1C(=O)OC	9%	0%	-23%
COc1ccc(S(=O)(=O)Nc2ccccc2C(=O)NC2CC2)cc1NC(C)=O	-4%	2%	8%
CS(=O)(=O)c1ccc(NC(=O)c2cccc(-n3cnnn3)c2)cc1	1%	-2%	-19%
Cc1ccc(CN2C(=O)C(CC(C)C)Nc3ncnc(N4CCN(c5ccccn5)CC4)c32)cc1 (stereo not given)	-7%	3%	-8%
CCN(CC)S(=O)(=O)c1ccc(N2CCCC2)c(NC(=O)C2=NN(c3ccccc3)C(=O)CC2)c1	6%	-4%	-21%
CC(=O)Nc1ccc(S(=O)(=O)NNC(=O)CCC(=O)NCc2ccccc2)cc1	-9%	-1%	-15%
CC(C)N(C(=O)CO/N=C/c1cccc([N+](=O)[O-])c1)C(C)C	1%	1%	-8%
COc1c(O)cc(O)c2c(=O)cc(-c3ccccc3)oc12	-20%	-3%	56%[activator]
COC(=O)C1=C(c2ccc(OC(F)(F)F)cc2)C[C@@H]2CC[C@H]1N2C(=O)NCCOc1ccccc1Cl	1%	2%	?
CCCCCCSc1ccc(-c2nc3ccc(C)cn3c2NC2CCCCC2)cc1	-20%	-10%	?
CCCSc1ccc([C@H]2N[C@@](Cc3ccccc3)(C(=O)OC)[C@H]3C(=O)N(C)C(=O)[C@@H]23)cc1	-3%	-5%	-20%
Cc1ccc(/C=N/NC(=O)CNC(=O)COc2ccc(Cl)cc2)o1	-12%	-1%	-18%
COC(=O)c1ccc(-c2cc3onc(-c4ccccc4)c3c(=O)n2C)cc1	11%	-1%	29%
CCOC(=O)N1CCN(C(=O)c2ccc(Cl)c(NC(=O)c3cccs3)c2)CC1	-2%	-1%	-11%
CC1(C)CC(=O)C=C(c2ccc3ccccc3c2)C1	-14%	-11%	9%
COc1ccc(CCC(=O)Nc2cc(S(=O)(=O)N3CCOCC3)ccc2OC(C)C)cc1	4%	-3%	9%
COC(=O)C1=C(C)N(C(C)c2ccccc2)C(=O)/C1=C\c1ccco1 (stereo not given)	-1%	-7%	-21%
Cc1ccc(NC(=O)C2CCCN(C3=NS(=O)(=O)c4ccccc43)C2)c(O)c1 (stereo not given)	9%	1%	-1%
O=C(C[C@H]1C/C=C\CC[C@H](Cc2ccc(F)cc2)C(=O)O[C@H](c2ccccc2)CNC1=O)N[C@H](CO)Cc1ccccc1	8%	1%	?
COc1ccc([C@@H]2CC=C(C(=O)O)[C@H](c3ccccc3)N2S(=O)(=O)c2ccc(C)cc2)cc1OC	5%	-1%	3%
COc1ccc(C(=O)OC(C)C(=O)NCC2CCCCC2)cc1S(=O)(=O)N1CCOCC1 (stereo not given)	-7%	-4%	-14%
CCOC(=O)C1=C(C)N(C[C@@H]2CC[C@@H](Cc3ccc(-c4ccccc4)cc3)O2)C(=O)NC1c1ccc(SCc2ccco2)c([N+](=O)[O-])c1 (stereo not given in full)	-9%	18%	-13%
O=C1c2ccc(Cl)cc2S(=O)(=O)c2cccc(C(=O)N3CCN(c4ccc(Cl)cn4)CC3)c21	-3%	-4%	0%
Fc1ccc(CN2CCN(c3ccc(Cl)cc3)CC2)cc1	-4%	-4%	-22%
CC(C)(C)OC(=O)N1CCC(CC2CC(c3ccncc3)=NO2)(C(=O)O)CC1 (stereo not given)	-5%	-8%	-10%
C/C(N)=C(/C#N)C(=O)COC(=O)CCCNC(=O)c1ccc(Cl)cc1	7%	1%	-3%
CC1(C)CC(=O)C=C(c2ccc(I)cc2)C1	13%	-1%	16%
CCOC(=O)[C@@H]1[C@H]2COc3ccccc3[C@H]2N2C(=O)N(c3ccc(Br)cc3)C(=O)[C@]12C	-1%	-4%	-2%
CCn1cnnc1SCC(=O)NCC1COc2ccccc2O1 (stereo not given)	-9%	-5%	6%
CSc1ncccc1C(=O)OCC(=O)C(C)(C)C	4%	-1%	-7%
COc1ccccc1C(CNC(=O)CN(C)S(=O)(=O)c1ccc(C)cc1)N1CCCC1 (stereo not given)	-2%	2%	-11%
CC(=O)NC12CC3CC(C1)CC(C(=O)N1CCN(S(=O)(=O)c4ccccc4[N+](=O)[O-])CC1)(C3)C2	-8%	3%	-10%
Cc1cc(OCCCC(=O)Nc2nnc(C3CC3)s2)ccc1Cl	-13%	5%	-11%
C=C[C@@]1(C)CCC(/C(C)=C/C=C/C(C)(C)O)C[C@@H]1C(=C)C (stereo not given in full)	2%	-2%	-8%
C[C@H]1NC(=O)[C@@]2(C)[C@@H](c3ccccc3)[C@H]3COc4ccccc4[C@H]3N2C1=O	10%	-5%	-4%
C[C@@H]1CN([C@@H](C)CO)C(=O)Cc2cc(NS(=O)(=O)c3cn(C)cn3)ccc2O[C@@H]1CN(C)C(=O)Nc1ccccc1	16%	1%	-22%
Cc1noc(C)c1COc1ccc(C(=O)NNC(=O)c2ccccc2F)cc1	-13%	0%	-11%
COC(=O)C1=C(c2ccc(F)cc2OCc2ccccc2)C[C@@H]2CC[C@H]1N2C(=O)NCCc1ccc(F)cc1	-2%	-6%	0%
CN(Cc1cccs1)C(=O)Cn1cnc2cc([N+](=O)[O-])ccc2c1=O	10%	12%	?
Cc1cc(C(=O)CN2C(=O)C(=O)N(Cc3ccco3)C2=O)c(C)n1CCc1ccc(F)cc1	-8%	2%	-23%
CN1CCC(N(C)C(=S)Nc2ccc(F)cc2)CC1	-2%	2%	20%
O=C(COc1ccc([N+](=O)[O-])cc1Cl)NCC1CCCO1 (stereo not given)	0%	-8%	-15%
COc1cc(C(=O)NC(C)c2ccccc2)ccc1OCC(=O)N1CCOCC1 (stereo not given)	-11%	3%	5%
CCOc1ncccc1C(=O)NNC(=O)c1cccc(S(=O)(=O)N2CCOCC2)c1	1%	-2%	-14%
COc1ccccc1-c1nn(-c2ccccc2)cc1C(=O)NC1CC1	-3%	-16%	1%
O=C(c1ccncc1)N1c2ccccc2Sc2ccccc21	5%	-9%	?
O=C(CSC1=Nc2ccccc2C2CC=NN12)Nc1ccc(F)c(F)c1F (stereo not given)	6%	-2%	-14%
C=CCC[C@H](Cc1ccc(F)cc1)C(=O)OC[C@H](Cc1c[nH]c2ccccc12)NC(=O)[C@H](CC=C)CC(=O)N(CCO)Cc1ccccc1	-5%	2%	-27%
CC(C)(C)OC(=O)NCCCCCNC(=O)c1[nH]cnc1C(=O)Nc1ccc(Cl)cc1	2%	-4%	32µM*
CN(C(=S)NCCN1CCOCC1)C(c1ccccc1)c1ccccc1	8%	0%	-3%
CCOCCCNC(=O)/C=C1\Sc2ccccc2N(Cc2ccccc2F)C1=O	4%	2%	17%
CCCNC(=O)c1ccccc1NC(=O)c1cccc(-n2cnnn2)c1	-7%	-8%	-29%
CC(C)C[C@@]12C(=O)N(c3cccc(F)c3)C(=O)N1[C@H](c1ccc(F)cc1)[C@@H]1C(=O)N(C3CCCCC3)C(=O)[C@@H]12	12%	0%	0%
Nc1nc(N)nc(-c2cc(C(F)(F)F)ccc2Cl)n1	13%	2%	-4%
Cc1cc(NC(=O)COC(=O)c2ccccc2Cl)no1	-1%	-3%	8%
COCCCNC(=O)C[C@H]1C[C@H](C(=O)N2CCCCC2)[C@@]2(C)c3[nH]c4cc(-c5ccco5)ccc4c3CCN2C1=O	-2%	0%	-13%
Cc1nnc(SCC(=O)N(CC(C)C)C2CCS(=O)(=O)C2)n1N (stereo not given)	13%	-2%	-9%

Quoted from the listing.
For StopGo reporter, CN(C(=S)NCCN1CCOCC1)C(c1ccccc1)c1ccccc1 has -3%
For RE007 growth inh, O=C(CSC1=Nc2ccccc2C2CC=NN12)Nc1ccc(F)c(F)c1F (stereo not given) has 6%
For RE007 growth inh, Cc1cc(NC(=O)COC(=O)c2ccccc2Cl)no1 has -1%
For RE007 growth inh, Nc1nc(N)nc(-c2cc(C(F)(F)F)ccc2Cl)n1 has 13%
